miR-21 reporter – raises the signal of a miR-21 reporter | HeLa miR-21 FLuc reporter, luciferase, 48 h | Potency, µM (titrated, usually from 38.3 µM), for the others: at the highest dose reporter change, positive = more light | 340,000 tested, under 10 active | AID 2288; active = well fitted rising curve with a large enough effect; inconclusive = small, poorly fitted or top-dose-only effect; inactive = no such curve, though single readings can be large or run the other way;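 note: % of control where 0% means no effect; miR-21 action dims this reporter so a rising signal means less miR-21 action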
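HeLa cells endogenously expressing miR-21, stably carrying CMV-driven firefly luciferase with a downstream miR-21 binding site, 2000 cells/well. Titrations up to approximately 40 uM, 48 hours; luciferase luminescence read.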
The depositor's hits bear a star; ? = inconclusive. Only part of the results is shown; count on the stated rates, not on these rows.

SMILES	miR-21 reporter
COc1ccc(CCNC(=O)Cc2c(C)c3cc(OC)c(OC)cc3oc2=O)cc1	3%
COc1ccc(NC(=O)Cn2cnc3c(nc4n3CCCCC4)c2=O)c(OC)c1	0%
COc1ccc(OC)c(NC(=O)c2c(NCc3ccc(C)o3)sc3c2CCC(C)C3)c1 (stereo not drawn)	1%
COc1ccc(N2CCN(C(=O)c3c(C)oc4ncnc(N5CCCCC5)c34)CC2)cc1	-4%
COc1cccc(N2CC(NC(=O)COc3ccc4ccccc4c3)CC2=O)c1 (stereo not drawn)	0%
Cc1ccccc1Cn1c(=O)n(CCc2ccccc2)c(=O)c2c(C)c(C)sc21	-3%
CC1CCN(S(=O)(=O)c2ccc3c(ccc(=O)n3CC(=O)NCc3ccccc3)c2)CC1	2%
COc1ccc(-c2nc3c(c(SCC(=O)Nc4ccccc4F)n2)Cc2cc(C)ccc2O3)cc1	0%
CNS(=O)(=O)c1cn(CC(=O)Nc2cccc(OC)c2)cc1S(=O)(=O)NC	-1%
COc1ccc(C(=O)c2cn(Cc3ccccc3OC)c3cc4c(cc3c2=O)OCO4)cc1	-2%
COc1ccc(OC)c(NS(=O)(=O)c2cc3c(cc2Cl)N(C(C)=O)CCO3)c1	-28%
COc1ccc(-c2nnn3c2nc(NCCc2ccc(OC)c(OC)c2)c2ccccc23)cc1	-9%
CCOC(=O)c1[nH]c(C)c(CCC(=O)Nc2ccc(C)cc2Cl)c1C	-6%
Cc1ccc(-n2nnnc2CNC(=O)C(C)C)cc1C	0%
CCC(C(=O)Nc1cccc(-c2cn3cccnc3n2)c1)c1ccccc1 (stereo not drawn)	-1%
Cc1cccc(C(=O)Nc2ccc(OCc3cc(=O)n4ccsc4n3)cc2)c1	-5%
COc1ccc(OC)c(NC(=O)CCCOc2cc(=O)n(C)c3ccccc23)c1	-9%
COc1ccc(-c2nc3ccccc3s2)cc1NC(=O)c1ccccc1F	-7%
CCOC(=O)c1cccc(NC(=O)Cn2c(=O)nc(-c3ccccc3F)c3cc(Cl)ccc32)c1	-2%
Cc1cccc(NC(=O)CSc2nc3c(oc4ccccc43)c(=O)n2Cc2ccco2)c1	3%
CCn1cc(C(=O)N2CCN(c3ccc(F)cc3)CC2)c(=O)c2cc(S(=O)(=O)N(C)C3CCCCC3)ccc21	-6%
CC1=C(C(=O)Nc2ccc(C)cc2C)C(c2cccs2)n2nc(SCc3ccc(Cl)cc3)nc2N1 (stereo not drawn)	-7%
O=S(=O)(NCCc1csc2nc(-c3ccccc3)nn12)c1cc(F)ccc1F	2%
O=C(c1ccc2c(c1)N(Cc1cccc(F)c1)C(=O)c1ccccc1S2)N1CCC2(CC1)OCCO2	3%
CCOc1ccc(-n2nc3cc(C)c(NC(=O)CC)cc3n2)cc1	-14%
Cc1cccc(OCCn2c(-c3ccc(Cl)cc3)nc3ccccc3c2=O)c1C	0%
CC(=O)N1CCc2c(sc3c2c(=O)n(-c2ccc(F)cc2)c(=O)n3Cc2cc(C)ccc2C)C1	3%
Cc1ccn2c(Nc3ccc4c(c3)OCCO4)c(-c3ccc(N(C)C)cc3)nc2c1	-36%
COc1ccc(Cn2ccc3nc(C)c(C(=O)N4CCN(c5ccccc5OC)CC4)cc3c2=O)cc1	19%
COc1cc(OC)c(NS(=O)(=O)c2ccc3c(c2)CCCN3C(C)=O)cc1Cl	8%
O=C(CSc1nnc(COc2ccccc2)o1)Nc1cc(C(F)(F)F)ccc1Cl	-5%
CC(=O)c1ccc(NC(=O)Cn2c(=O)nc(-c3ccccc3)c3ccccc32)cc1	-3%
COc1cccc(CNC(=O)Cn2ncn3c(cc4ccccc43)c2=O)c1	-3%
CCOc1ccc2c(c1)[C@@H]1C=CC[C@@H]1[C@H](c1ccccc1Cl)N2	0%
CC(C)C(=O)Nc1ccc2nc(SCC(=O)N3CCOCC3)sc2c1	-14%
Cc1cc(C)nc(NS(=O)(=O)c2ccc(NC(=O)c3ccccc3O)cc2)n1	-18%
COc1ccc(-n2ncc(C(=O)NCc3cccs3)c2C2CCN(C(=O)OC(C)(C)C)CC2)cc1	4%
COc1ccc(NC(=O)CCN2CCN(c3cccc(Cl)c3)CC2)cc1	-2%
COc1ccc(-c2ccc3c(N)c(C(=O)Nc4ccc(C)cc4C)sc3n2)cc1OC	18%
COc1ccc(-c2nn(C)c3sc(C(=O)N4CCN(c5cc(Cl)ccc5C)CC4)cc23)cc1OC	6%

Brought forward from above: 6 entries, then new ones.
SMILES	miR-21 reporter
CC(C)C(=O)Nc1ccc2nc(SCC(=O)N3CCOCC3)sc2c1	-14%
Cc1cc(C)nc(NS(=O)(=O)c2ccc(NC(=O)c3ccccc3O)cc2)n1	-18%
COc1ccc(-n2ncc(C(=O)NCc3cccs3)c2C2CCN(C(=O)OC(C)(C)C)CC2)cc1	4%
COc1ccc(NC(=O)CCN2CCN(c3cccc(Cl)c3)CC2)cc1	-2%
COc1ccc(-c2ccc3c(N)c(C(=O)Nc4ccc(C)cc4C)sc3n2)cc1OC	18%
COc1ccc(-c2nn(C)c3sc(C(=O)N4CCN(c5cc(Cl)ccc5C)CC4)cc23)cc1OC	6%
CC(C)CCNC(=O)CN1C(=O)c2cccnc2Sc2ccccc21	-3%
Cc1ccc2oc3c(c(=O)c2c1)C(c1ccc(OCC(N)=O)cc1)N(Cc1ccc2c(c1)OCO2)C3=O (stereo not drawn)	-4%
CCOc1ccc(-c2nonc2NC(=O)c2oc3cc(C)ccc3c2C)cc1OCC	1%
CC(=O)N1CCc2c(sc3c2c(=O)n(-c2cccc(Cl)c2C)c(=O)n3Cc2ccccc2C)C1	1%
CC1CCN(S(=O)(=O)c2ccc3c(c2)N(CC(=O)N2CCN(c4ccccc4)CC2)C(=O)CO3)CC1	0%
Cc1sc2ncn(CC(=O)N3CCN(c4ccccc4F)CC3)c(=O)c2c1S(=O)(=O)N1CCN(c2ncccn2)CC1	0%
CSc1ncc(C(=O)Nc2cccc(Cl)c2C)c(-c2ccccc2)n1	-5%
NC(=O)CSc1nnnn1-c1cccc(O)c1	0%
CCCc1nnc(NC(=O)c2cc(=O)c3cc(Cl)ccc3o2)s1	-8%
Cn1ccnc1SCC(=O)Nc1cccc(Br)c1	-47%
CC1=C(C(=O)Nc2ccccc2)C(c2cccnc2)n2nc(SCc3ccccc3F)nc2N1 (stereo not drawn)	6%
COc1ccc2c(c1)Cc1sc(NC(=O)c3cccc(Br)c3)nc1-2	-1%
Cc1c(Cl)cccc1NS(=O)(=O)c1ccc(NS(=O)(=O)c2ccc3c(c2)OCCO3)cc1	1%
COc1ccc(C(=O)N(Cc2ccco2)Cc2ccccc2F)cc1Cl	18%
Cc1cccc(N2CCN(C(=O)Cc3c(C(=O)O)c(C)cn3C)CC2C)c1 (stereo not drawn)	4%
Cc1cccc(C(=O)Nc2nnc(SCc3cc(=O)n4cccc(C)c4n3)s2)c1	-1%
CCn1ccc2c(OCC(=O)NCc3ccc(C)cc3)cccc2c1=O	-6%
CCN(C(=O)Cn1ncc2c1-c1cc(C)ccc1OC2)c1cc(Cl)ccc1OC	14%
COc1ccc(CCNC(=O)CS(=O)Cc2nc(-c3ccc(C)cc3)oc2C)c(OC)c1 (stereo not drawn)	2%
COc1cccc(-c2noc(CCCC(=O)NCc3ccco3)n2)c1	-16%
CCn1c(C(=O)NCc2ccc(OC(C)C)cc2)cc2oc3ccccc3c21	23%
Cc1nn(C(C)(C)C)c(OC(=O)c2c(F)cccc2F)c1Sc1ccccc1	28%
CCn1cc(CNC(=O)c2cc(-c3ccc(C)c(C)c3)nc3ccccc23)c(C)n1	16%
CCc1ccc(NC(=O)CSc2nnc(-c3nonc3NC(C)=O)n2-c2ccccc2)cc1	4%
CCc1ccc(C(=O)CC2(O)C(=O)N(Cc3ccc(C)cc3)c3ccccc32)cc1 (stereo not drawn)	3%
COc1ccccc1-c1cc(NC(=O)COc2ccccc2Cl)n(-c2ccccc2)n1	-3%
CCc1ccccc1NC(=O)CN1C(=O)c2cccnc2Sc2ccccc21	-21%
COc1ccc(C(=O)NCC(c2ccc3c(c2)OCO3)N2CCN(C)CC2)cc1OC (stereo not drawn)	-13%
O=C(NC1(C(F)(F)F)C(=O)Nc2c1c(=O)[nH]c(=O)n2-c1ccc(F)cc1)c1ccccc1 (stereo not drawn)	0%
COc1ccc(NC(=O)c2ccco2)cc1NC(=O)c1cc(Cl)ccc1OC	-28%
CC(C)CCOc1ccc(Oc2nc(N(C)C)nc(N(C)C)n2)nn1	7%
COc1ccc(-c2[nH]ncc2C(=O)NCc2cccc(F)c2)cc1	1%
Cc1ccc2nc(NC(=O)c3nc(SCc4ccccc4C)ncc3Cl)sc2c1	-3%
CCOc1cc(CNC(=O)CSc2n[nH]c(-c3ccccc3)n2)cc(OCC)c1OCC	-4%
CCCn1c2ccccc2c2cnn(CC(=O)Nc3cc(OC)c(OC)c(OC)c3)c(=O)c21	0%
CCC(=O)N1CCc2cc(Br)cc(S(=O)(=O)N3CCN(c4ccccc4OC)CC3)c21	7%
CCCCNC(=O)CCn1c(=O)c2cccn2c2cccnc21	-3%
COc1ccc(Cn2ccnc2SCC(=O)Nc2ccc(C)cc2C)cc1	0%
Cc1cccc(NC(=O)c2cc3c(=O)n4cccc(C)c4nc3s2)c1C	7%
CC1CCCCN1C(=O)CSc1nc2ccccc2nc1Cc1ccc(Cl)cc1 (stereo not drawn)	20%

Pulled by compound from above:
SMILES	miR-21 reporter
CCc1ccc(NC(=O)CSc2nnc(-c3nonc3NC(C)=O)n2-c2ccccc2)cc1	4%
COc1ccc(NC(=O)c2ccco2)cc1NC(=O)c1cc(Cl)ccc1OC	-28%
CCC(=O)N1CCc2cc(Br)cc(S(=O)(=O)N3CCN(c4ccccc4OC)CC3)c21	7%
COc1ccccc1-c1cc(NC(=O)COc2ccccc2Cl)n(-c2ccccc2)n1	-3%

Following part.
SMILES	miR-21 reporter
COCCNc1oc(-c2ccccc2)nc1S(=O)(=O)c1ccc(Br)cc1	-2%
COCCCNC(=O)C1CCN(c2nn3cc(-c4ccc(F)cc4)nc3s2)CC1	-32%
Cc1ccc(N(C)C(=O)CN2C(=O)CCc3cc(S(=O)(=O)N4CCOCC4)ccc32)cc1	-12%
Cc1ccc(CN(Cc2ccco2)C(=O)COc2ccc(C)c(C)c2)cc1	-14%
COc1ccc(CC(=O)NCc2ccc3c(c2)CCN3C(C)=O)cc1OC	-2%
COc1ccc(N2CCN(c3c4c(nc5nncn35)CCC4)CC2)cc1	19%
O=C(NCC(c1ccco1)S(=O)(=O)c1ccc(Cl)cc1)c1ccc(C(F)(F)F)cc1 (stereo not drawn)	13%
Cc1ccc(CNC(=O)c2ccc(CSCc3ccc(Cl)cc3)o2)cc1	10%
Cc1ccc(-c2noc(-c3cccnc3NCc3ccco3)n2)cc1	-5%
CCOC(=O)c1sc2ccccc2c1S(=O)(=O)N1CCN(c2cccc(C)c2C)CC1	7%
CCC1CCCCN1C(=O)CCS(=O)(=O)c1cc2c(cc1C)NC(=O)CO2 (stereo not drawn)	-4%
Cc1cccc(-n2ccnc2SCC(=O)Nc2ccccc2C(F)(F)F)c1	-4%
CSc1ncc(C(=O)NCc2cccc(F)c2)c(-c2ccccc2)n1	0%
Cc1cccc(C)c1-n1ncc(C(=O)NCCCN2CCCCC2)c1C1CCN(C(=O)OC(C)(C)C)CC1	-1%
O=c1c(-c2cc(-c3ccccc3)nc3c2COc2ccc(Cl)cc2-3)coc2ccc(F)cc12	-7%
CCN(CC)S(=O)(=O)c1ccc2c(c1)N(CC(=O)Nc1ccccc1F)C(=O)C1CCCN21 (stereo not drawn)	-6%
O=C(Cn1c(SCCOc2ccc(Cl)cc2)nc2ccccc21)N1CCCCC1	-3%
Cc1ccccc1Nc1c(-c2ccc(Cl)s2)nc2cccc(C)n12	3%
COc1cccc(CNC(=O)CCS(=O)(=O)c2cc3c4c(c2)CCN4C(=O)CC3)c1	0%
Cc1c(Cl)cccc1NC(=O)NCc1c(-n2cccc2)sc2c1CCCC2	-5%

Three of the entries above in order of their number in miR-21 reporter, largest number first:
Structure	miR-21 reporter
COc1cccc(CNC(=O)CCS(=O)(=O)c2cc3c4c(c2)CCN4C(=O)CC3)c1	0%
COc1ccc(CC(=O)NCc2ccc3c(c2)CCN3C(C)=O)cc1OC	-2%
Cc1ccc(CN(Cc2ccco2)C(=O)COc2ccc(C)c(C)c2)cc1	-14%

Additional records
SMILES	miR-21 reporter
Cc1ccc(-n2c(=O)c3cccnc3n2CC(=O)Nc2ccccc2C(F)(F)F)cc1C	-11%
Cc1ccc(C(=O)/C=C/c2cn(CC(O)CN3CCCCCC3)c3ccccc23)cc1 (stereo not drawn)	9%
CCOCCCNc1nc2cc(OC)c(OC)cc2c2nc(-c3ccccc3)nn12	1%
CCCCCCn1c(CNC(=O)c2ccccc2)nc2ccccc21	-12%
CC(=O)Nc1ccc(NC(=O)c2oc3ccc4c(c3c2C)C(=O)CC(C)(C)O4)cc1	-44%
CCOc1ccccc1C(=O)N1CCc2cc(OC)c(OC)cc2C1COc1ccc(OC)cc1 (stereo not drawn)	-1%
CCOC(=O)c1c(NC(=O)c2cc(CC)on2)sc(C(C)=O)c1C	-2%
COc1ccc(-c2cc3c(=O)n(CC(=O)Nc4ccc(Br)c(C)c4)ccn3n2)cc1OC	-7%
Cc1nn(CC(=O)Nc2ccc(OC(F)(F)F)cc2)c(=O)c2c(C)n(-c3ccc(Cl)cc3)nc12	-5%
COc1cc(OC)cc(C(=O)Nc2ccc(-c3nc4cc(C(C)C)ccc4o3)cc2)c1	-9%
CC1=C(C(=O)Nc2ccc(C)cc2Cl)C2(CCCCCC2)OC1=O	-10%
Cc1ccc2c(=O)cc(C(=O)Nc3ccc(S(=O)(=O)N4CCCCC4)cc3)oc2c1	2%
CCC1CN(C(=O)Nc2ccc(Br)cc2F)c2ccccc2S1 (stereo not drawn)	-3%
COCCCNC(=O)c1c(NC(=O)Cc2coc3cc(C)ccc23)sc2c1CCCC2	20%
Cc1cc(C)cc(NC(=O)c2cc(S(=O)(=O)N3CCc4ccccc43)cn2C)c1	?
Cc1cc(Br)ccc1NC(=O)C(NS(=O)(=O)c1cccs1)c1ccccc1 (stereo not drawn)	1%
Cc1ccc(-c2noc(-c3ccc(N4CCCCC4)c([N+](=O)[O-])c3)n2)cc1	-46%
